Assay outcomes as filed in PubChem BioAssay.
gsp ag = gsp mutant agonism; Potency, µM (titrated, usually from 76.9 µM), for inactives: top-dose activation (cAMP increase), hits mostly activators; AID 624287; gsp mutant cells, cAMP HTRF, 30 min; control for the full effect not named in the record; hit rate 0.13% among 340,000; active = well fitted activation curve with a large enough effect; inconclusive = small, poorly fitted or top-dose-only effect, or another doubt; inactive = no such curve, though single readings can be large or run the other way; cell line not stated here;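 note: phosphodiesterase inhibitor Ro 20-1724 added with compounds to block cAMP breakdown; potency is the fitted concentration of half-maximal effect; nearly all actives have a fitted effect of over 60% in size; about a fifth of the inactives were tested at one dose only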
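Cells stably selected in G418 were plated at 2000/well, grown 16-24 hr, then given compounds in DMSO with the PDE inhibitor […] (300 uM solution added) for 30 min at 37C; cAMP was read by HTRF.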
TRPV1 PAM = human TRPV1 potentiation | Q8NER1 | potentiation, % at 8.33 µM | hit rate 0.02% among 320,000 | AID 540277 | TRPV1-expressing cells, Fluo-8 calcium influx, capsaicin EC20 potentiation; host cell line not named in the record; control for the full effect not named in the record; active means potentiation above 80%; inconclusive means 30% to 80%; inactive means below 30%; note: 0% is about no effect
Target sequence (Q8NER1 whole entry, looked up): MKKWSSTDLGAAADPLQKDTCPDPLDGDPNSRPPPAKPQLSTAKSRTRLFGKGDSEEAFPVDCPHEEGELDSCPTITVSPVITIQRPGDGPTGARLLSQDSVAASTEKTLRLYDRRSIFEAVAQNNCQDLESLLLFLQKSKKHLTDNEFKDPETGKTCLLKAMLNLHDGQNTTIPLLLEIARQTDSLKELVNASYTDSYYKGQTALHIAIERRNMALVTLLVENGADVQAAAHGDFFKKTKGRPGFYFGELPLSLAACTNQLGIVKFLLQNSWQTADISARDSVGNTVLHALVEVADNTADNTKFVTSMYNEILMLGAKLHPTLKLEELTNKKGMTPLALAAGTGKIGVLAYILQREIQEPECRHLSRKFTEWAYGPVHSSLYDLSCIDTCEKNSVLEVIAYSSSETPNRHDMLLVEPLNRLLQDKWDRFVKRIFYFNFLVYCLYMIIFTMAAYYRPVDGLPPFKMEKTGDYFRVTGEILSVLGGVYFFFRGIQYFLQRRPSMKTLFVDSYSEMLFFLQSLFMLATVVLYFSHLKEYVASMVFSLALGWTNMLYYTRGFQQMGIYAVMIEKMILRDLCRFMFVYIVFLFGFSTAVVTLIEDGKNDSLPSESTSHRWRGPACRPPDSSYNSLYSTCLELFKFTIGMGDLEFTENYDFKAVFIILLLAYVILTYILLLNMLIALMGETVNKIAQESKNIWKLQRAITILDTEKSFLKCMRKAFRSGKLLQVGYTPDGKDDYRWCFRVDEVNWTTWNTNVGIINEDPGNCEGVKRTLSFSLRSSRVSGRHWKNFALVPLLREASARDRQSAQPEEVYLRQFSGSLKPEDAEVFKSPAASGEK
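TRPV1-expressing cells were cultured overnight at 35.5C and loaded with Fluo-8 calcium dye for 40 to 90 min at room temperature. After a 10 s baseline, compound was added and calcium influx was read kinetically for 3 min (ex 480/em 520 nm).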
ClpP mod = qHTS Assay for Activators of ClpP | AID 651965, 2013 | Potency, µM (doses to about 57.5 µM), for inactives: at the highest dose activity change, negative = active | ATP-dependent Clp protease proteolytic subunit (Bacillus subtilis (strain 168)), P80244 | purified B. subtilis ClpP, FRET peptide cleavage, 20 min | hit rate 1.9% among 340,000; active = well fitted falling curve with a large enough effect; inconclusive = small, poorly fitted or top-dose-only effect; inactive = no such curve, though single readings can be large or run the other way; note: potency is the fitted concentration of half-maximal effect; the source files actives as falling curves though it sought activators and does not explain the sign; nearly all actives have a fitted effect of over 65% in size; many hits overshoot -100%
Target sequence (P80244 whole entry, looked up): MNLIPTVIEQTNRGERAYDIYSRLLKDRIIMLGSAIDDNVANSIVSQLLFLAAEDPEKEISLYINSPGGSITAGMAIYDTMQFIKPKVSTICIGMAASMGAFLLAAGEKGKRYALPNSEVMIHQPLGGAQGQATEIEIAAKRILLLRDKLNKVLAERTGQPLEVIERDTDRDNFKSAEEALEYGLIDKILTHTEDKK
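Purified B. subtilis ClpP, 10 microg/mL final in Tris/HCl pH8 with KCl, BSA, glycerol and Tween-20, cleaved an Abz/nitrotyrosine-quenched decapeptide. Fluorescence (ex 320, em 430) was read at 0 and 20 min at room temperature. Delta was normalized to 5.8 microM ADEP and DMSO/no-enzyme controls.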
D2 potentiator = positive allosteric modulators of human D2 dopamine receptor. P14416. potentiation, % (no concentration beside the values). hit rate 0.23% among 360,000. DiscoveRx D2 beta-arrestin cells, luminescence, 90 min; 100% = 57 uM dopamine signal. AID 624464; active = potentiation of 50% or more; inconclusive = 30% to 50%; inactive = 30% or less;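 note: compound concentration not given in the record; tested on top of an EC20 dose of dopamine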
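PathHunter beta-arrestin assay in DiscoveRx D2 cells. Compounds were added with an EC20 of dopamine (50 nM final) for 90 min at 37 deg C. Luminescence was read 1 h after detection reagent, with 57 uM dopamine as the EC100 control.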
Menin MLL FP FL = menin-MLL binding inhibition, fluorescein peptide; FP activity change, % at 61.4 µM; 290,000 tested, under 10 active; Fluorescence polarization, fluorescein-MLL peptide displacement from menin; AID 1766; inconclusive = falling polarisation curve, or a change in total fluorescence; inactive = total fluorescence flat and polarisation flat or rising; no compound was filed as active; the % refers to the polarisation; negative = inhibition;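 note: % of control where 0% means no effect; inhibitors lower the polarisation; unlabelled MLL peptide was the positive control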
gsp antagonist = antagonizes gsp, the McCune-Albright syndrome mutation; gsp-mutant cells, cAMP HTRF, 30 min; control for the full effect not named in the record; hit rate 0.4% among 340,000; AID 624288; Potency, µM (titrated, usually from 76.9 µM), for inactives: at the top dose activity change, negative = inhibition, hits mostly inhibitors; active = falling curve of any shape with a large fitted effect; inconclusive = falling curve, mostly with a smaller effect; inactive = flat or rising curve; cell line not stated here;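 note: intracellular cAMP measured with PDE inhibitor Ro 20-1724 present during compound exposure; potency is the fitted concentration of half-maximal effect; % is set by controls: 0 for no effect and ±100 for the full control effect; nearly all actives have a fitted effect of over 65% in size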
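Measurement of cellular cAMP by homogeneous time-resolved fluorescence following a 30 min compound exposure at 37C. The PDE inhibitor […] was present throughout; the assay buffer was DPBS with 0.05% BSA and 0.005% Tween 20.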
Sfp inh = Sfp phosphopantetheinyl transferase inhibition; hit rate 3.5% among 310,000; Biochemical Sfp PPTase activity, qHTS; Q9F4F7; Potency, µM, without a hit: max response, negative = inhibition, actives largely listed as inhibitors; active = well fitted inhibition curve with a large enough effect; inconclusive = small, poorly fitted or top-dose-only effect, or another doubt; inactive = no such curve, though single readings can be large or run the other way;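 note: the enzyme is Sfp with the accession as filed and its product quenches rhodamine fluorescence; potency is the fitted concentration of half-maximal effect; 0% = enzyme reaction without inhibitor and -100% = no enzyme wells; top concentration of the series not given in the record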
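Fluorescence-quenching assay with 15 nM Sfp, 5 uM rhodamine-CoA and 12.5 uM BHQ-2-labelled ybbR peptide in pH 7.6 Hepes/MgCl2 buffer. Enzyme was pre-incubated with compound for 15 min at room temperature. Rate was taken from the 30-min fluorescence change (525/598 nm).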
* = called active by the depositor; ? = inconclusive; / = not tested or not shown; & = joins results of further samples; [ ] = dose if it differs, or a comment.

The line under a structure holds: gsp ag	TRPV1 PAM	ClpP mod	D2 potentiator	Menin MLL FP FL	gsp antagonist	Sfp inh
CCOc1ccccc1N/C(=N/c1nc(C)cc(C)n1)NC(=O)Nc1ccc(Cl)c(Cl)c1
→ /	9	/	/	1.6	/	10%
CN(C)NC(=O)c1ccc([N+](=O)[O-])s1
→ 3%	4	-2.8%	-15	1.9	7%	8%
Cc1c(-c2cccc(NC(=O)c3cccs3)c2)nc2ncccn12
→ ?	3	-2.6%	-8	1.9	0%	13%
Cc1nn(-c2ccccc2)c(Cl)c1/C=N/NC(=O)c1ccccc1NS(=O)(=O)c1cccs1
→ 9%	2	-13%	4	9.3	?	4%
CCn1c(O)c(N=Nc2ccc3ccccc3n2)c2ccccc21
→ -2%	7	-1.3%	-7	?	-6%	22µM*
O=[N+]([O-])c1ccc(S(=O)(=O)Nc2ccccn2)cc1
→ -14%[15.4 µM]	27	1.3%	-4	0.3	14%	9%
COCCNC(=O)c1cc2ncc(Br)cn2n1
→ 24%	4	-1.9%	-4	0.6	-4%	4%
O=[N+]([O-])c1cccc(S(=O)(=O)NC2CC3CCC2C3)c1 (stereo not given)
→ -21%	-3	0.4%	3	4.9	4%	4%
OC[C@@H](O)[C@@H](O)CO
→ /	-9	-0.1%	-2	/	10%	/
CC(C)OC(=O)N(C)C[C@H]1OCc2cn(nn2)CCCC(=O)N([C@H](C)CO)C[C@@H]1C
→ 2%	/	0.7%	1	/	/	/
Cc1ccc(-n2ncc3c(SCC(=O)NNC(=O)C(C)C)ncnc32)cc1
→ -1%[15.4 µM]	13	-5.4%	-5	-3.4	9%	7%
CC1CCCN(S(=O)(=O)c2ccc(Br)s2)C1 (stereo not given)
→ -2%	4	3.2%	-6	6.3	-3%	-9%
CCOC(=O)c1ccc(NC(=O)CSc2nc(=O)n(CCN3CCOCC3)c3c2CCC3)cc1
→ 1%	?	-1.7%	-18	/	-16%	/
CCOC(=O)N1CCN(c2c(N3CCN(c4ccccn4)CC3)c(=O)c2=O)CC1
→ -1%	5	0.3%	-2	3.7	-11%	20%
NS(=O)(=O)c1ccc(NC(=S)N2CCN(c3ccccc3Cl)CC2)cc1
→ -98%[inhibitor]	-18	1.4%	-8	/	12%	25%
c1ccc(SCCOCCn2cncn2)cc1
→ -30%	1	3.6%	-15	1.5	-9%	-19%
Brc1cc2c(cc1COc1ccc(-c3nn[nH]n3)cc1)OCO2
→ 7%	-17	-0.4%	-25	6.8	-5%	-5%
O=C(COC(=O)/C=C/c1ccc(F)cc1)Nc1cc(C(F)(F)F)ccc1N1CCOCC1
→ -4%	-4	/	-4	2.6	8%	6%
COCCCNC(=S)N(Cc1ccccc1)Cc1nc2ccccc2c(=O)[nH]1
→ 5%[15.4 µM]	-1	-9.5%	-7	-0.2	-6%	4%
CC(C)C(=O)NNS(=O)(=O)c1ccccc1
→ -48%[inhibitor]	21	/	-3	-1.6	9%	-1%
CCOP(=O)(Cc1ccc(C(C)(C)CC(C)=O)o1)OCC
→ 6%	1	-3.2%	-2	2.9	-2%	3%
Cc1ccc(NC(=O)COC(=O)Cn2nc(-c3ccc(F)cc3)oc2=O)cc1C
→ -4%[15.4 µM]	/	0.3%	-7	/	3%	/
COCCCNC(=O)CN1C(=O)COc2ccc(S(=O)(=O)N3CCCCCC3)cc21
→ 2%	-2	0.3%&1.1%	-5	/	-5%	23%
C(=N\NC(=Nc1ccccc1)c1ccccn1)/c1ccccn1
→ -3%	0	0.8%	1	0.3	-4%	-5%
N/C(Cc1ccc(Cl)cc1)=N\OC(=O)c1cccc2ccccc12
→ -19%	11	?	86*	3.7	-7%	-4%
CCOC(=O)c1c(C)[nH]c(C(=O)OC(C)C(=O)NCc2ccccc2)c1C (stereo not given)
→ -56%[inhibitor]	3	-1.3%	15	/	6%	/
COC(=O)c1ccc(Cl)c(NS(=O)(=O)c2ccc3c(c2)OCCO3)c1
→ -18%	20	-15%	2	2.0	9%	9%
NC(=O)c1c(NC(=O)c2cnccn2)sc2c1CCCC2
→ -5%[15.4 µM]	-12	/	-2	0.8	-4%	40µM*
Cc1cc(=O)n2nc(N3CCCC(C(=O)NCc4ccc5c(c4)OCO5)C3)sc2n1 (stereo not given)
→ 29%	10	-1.2%	-4	1.0	-7%	22%
CCOC(=O)C1CCN(S(=O)(=O)c2cc(C(=O)OC)n(C)c2)CC1
→ ?	?	2.3%	-5	-1.5	?	8%
CCOC(=O)CCC(NC(=O)c1ccc(CNc2nc3cc(C(F)(F)F)ccc3nc2C(=O)OCC)cc1)C(=O)OCC (stereo not given)
→ -9%	/	-1.3%	-7	/	-3%	/
COCCCNC(=O)Cn1cc(/C=C(\C#N)C(=O)NC2CC2)c2ccccc21
→ -50%[inhibitor]	-5	-1.5%	-1	-5.2	4%	11%
CN(C)c1ccc(C(=O)c2ccc(N(C)C)c(N)c2)cc1N
→ 1%	-19	-0.9%	-13	3.8	4%	2%
NS(=O)(=O)c1ccc(CCNC(=O)CN2CCN(Cc3cccc4ccccc34)CC2)cc1
→ 4%	1	/	-12	1.9	0%	25%
CC1CCCN(C(=O)CCS(=O)(=O)c2ccc3c(c2)NC(=O)C(C)S3)C1 (stereo not given)
→ -7%	-6	0.9%	-1	-0.6	-6%	20%
COCCCN(Cc1cccs1)S(=O)(=O)c1c[nH]c(C(=O)OC)c1
→ -25%	-3	-0.6%	-6	-5.9	9%	2%
CC1=NN(c2cccc(C(=O)O)c2)C(=O)/C1=C\C=C/c1ccccc1
→ -7%[15.4 µM]	-4	/	-5	2.0	28µM*	50µM*
O=C(NCc1ccco1)C(=O)NCC1OCCN1S(=O)(=O)c1ccccc1 (stereo not given)
→ 14%	18	-2.1%	-2	1.2	6%	4%
Nc1ccc2c(c1)Cc1cc(N)c(Br)cc1-2
→ -5%	/	-7.9%	-13	/	2%	/
Cc1ccc(-n2c(=O)[nH]cc(C(=O)N3CCc4ccccc43)c2=O)cc1C
→ -39%[inhibitor]	-6	1.3%	-4	-0.7	-8%	15%
COc1ccc(-n2c(=O)/c(=C\c3cccs3)s/c2=C(/C#N)C(=O)N2CCN(C)CC2)cc1
→ 3%[15.4 µM]	-7	32µM*	-31	-0.4	-8%	5%
C/C(N)=C(/C#N)C(=O)COC(=O)CC12CC3CC(CC(C3)C1)C2
→ -24%	-17	-0.6%	4	2.9	-10%	13%
COc1ccc(C(=O)Nc2ccc(N3CCN(C)CC3)cc2)cc1OC
→ ?	0	/	-4	6.5	-24%	13%
CC1(c2nnc(-c3cccc(Cl)c3)o2)CC(c2ccccc2F)=NO1 (stereo not given)
→ 29%	/	3.0%	-14	/	-12%	/
CSc1ccccc1NC(=O)C1CC(c2c(F)cccc2Cl)=NO1 (stereo not given)
→ -33%[inhibitor]	-6	0.8%	-1	-2.9	-6%	-25%
COc1ccccc1N=c1oc2cc(O)ccc2cc1C(=O)NCC1CCCO1 (stereo not given)
→ 20%	-21	-16%	-14	22	1%	-7%
CC(OC(=O)c1cc(Br)ccc1O)C(=O)NC1(C#N)CCCCC1 (stereo not given)
→ 14%	0	-6.0%	-32	/	-36%	/
O=C(CSc1nc(=O)n2ccccc2n1)NCCc1ccccc1
→ 17%[15.4 µM]	19	/	2	/	9%	/
Cc1ccc2nc(CC(O)(c3ccccc3)c3ccccc3)ccc2c1
→ 13%	/	-2.4%	-5	/	/	/
CC1CCN(C(=O)NC(=O)c2ccccc2)CC1
→ -34%[inhibitor]	?	-0.1%	-2	/	18%	15%

Next part:
The line under a structure holds: gsp ag	TRPV1 PAM	ClpP mod	D2 potentiator	Menin MLL FP FL	gsp antagonist	Sfp inh
O=C(NNc1c2ccccc2nc2ccccc12)C(O)c1ccccc1 (stereo not given)
→ 26%	3	-2.2%	-16	1.0	-4%	0%
COC(=O)c1[nH]c2ccc(Cl)cc2c1NC(=O)CCN1CCN(C2CCCCC2)CC1
→ -2%	7	-25%	-16	-0.2	14%	1%
COc1ccc(F)cc1S(=O)(=O)Nc1ccc2c(c1)OCCO2
→ -4%	9	1.0%	1	2.0	-4%	11%
CCCCc1cc(=O)oc2cc(OCc3cc(OC)c(OC)c(OC)c3)c(Cl)cc12
→ 0%	14	64%	-4	2.7	-13%	5%
CN(C)S(=O)(=O)c1ccc(C(=O)Nc2ccc(CCC(=O)N3CCCC3)cc2)cc1
→ -29%	-6	0.7%	-5	-0.5	15%	4%
Cc1cc(C)nc(SCc2cc(=O)c(OC(=O)c3cccc([N+](=O)[O-])c3)co2)n1
→ -24%	-7	-3.4%	23	0.8	-9%	3%
CCCCOc1ccc(C(=O)O)cc1
→ -18%	3	-0.9%	11	-0.5	-1%	0%
COc1ccccc1N1CCN(C2CCCN(C(=O)c3cc(C4CC4)on3)C2)CC1 (stereo not given)
→ 4%	-3	0.6%	-31	-0.2	12%	13%
CCn1c(=O)cc(SCC(=O)N2CCN(Cc3ccc4c(c3)OCO4)CC2)c2ccccc21
→ ?	12	-28%	-7	2.7	-25%	-11%
Cn1c2c(c(=O)n(C)c1=O)C(CC(=O)Nc1ccccc1F)C(=O)N2 (stereo not given)
→ -12%[15.4 µM]	-1	/	-3	-1.0	1%	-4%
N#C/C(=N\Nc1ccc(S(=O)(=O)N2CCCCCC2)cc1)C(N)=S
→ -1%[15.4 µM]	13	/	-19	5.6	?	?
COC(=O)C1=C(C(=O)OC)C2C=CC1C1C(OC(C)=O)C(OC(C)=O)C21 (stereo not given)
→ 2%	/	1.3%	-4	/	/	/
CCCCCCC(C)n1[nH]c(=O)c2c(C)cc(C)nc21 (stereo not given)
→ -2%[15.4 µM]	-9	/	1	-1.7	2%	4%
CCOC(=O)c1c(NC(=S)NNS(=O)(=O)c2ccc(Br)cc2)sc2c1CCCCC2
→ 13%[15.4 µM]	7	0.9%	11	/	7%	-2%
COc1ccccc1N(CC(=O)NC1CCCCC1)C(=O)c1csnn1
→ -1%	6	0.5%	-13	-2.5	5%	-4%
CCCc1ccc2oc(C(=O)NCCc3nc(C(=O)OCC)cs3)c(C)c2c1
→ 18%[15.4 µM]	0	0.7%	0	-0.7	?	-12%
NC(=O)c1ccc(NC(=O)CCC(=O)c2cccs2)cc1
→ -1%[15.4 µM]	3	/	-10	4.3	4%	4%
